Screening results from PubChem.
INS promoter inh = inhibitors of insulin promoter-driven GFP, primary screen, imaging, TRM-6 cells (human fetal islet line), eGFP reporter, cell count; 0.9% of 130,000 active; reporter expression induced with tamoxifen; AID 1273, 2008; inhibition, % at 2 µM;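 active = inhibition above the mean plus 3 SD, with well images judged a real hit on visual review, cut at about 60% in these data, passing the limit was not always enough; inconclusive = inhibition over the cutoff but images rejected on review; inactive = inhibition not above the cutoff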
PKD1 inh = inhibitors of human PKD1 kinase, biochemical, fluorescence polarization. Serine/threonine-protein kinase D1 (Homo sapiens), Q15139. inhibition, %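 (about 10 µM by stock and volumes)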. 0.056% of 200,000 active. PKD1 kinase fluorescence polarization assay. AID 797, 2007;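 active = inhibition of 50% or more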;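 note: controls were vehicle for no effect and a reference inhibitor for full effect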
HSV augment = enhancers of HSV replication in host cells, fold increase, host cell viability | maximum fold increase | 0.005% of 220,000 active | AID 1956, 2009 | HSV replication augmentation in cells;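 active = peak rise of 1.5-fold or more in the series; inconclusive = self-fluorescent or not available for retest; tested in PC3 cells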;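 note: first round at 10 µM; read as green reporter fluorescence; hits show the peak of a series up to 25 µM; 1 = signal of infected wells without compound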
RGS16-Gao HTS = modulators of RGS16 binding to Galphao, primary screen, biochemical, human proteins, multiplexed bead flow cytometry. Regulator of G-protein signaling 16 (Homo sapiens) + Guanine nucleotide-binding protein …. bead-based flow cytometry RGS16-Galphao binding, fluorescence; actives lie on both sides. binding response (% of control), % at 10 µM. 0.38% of 220,000 active;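 active = below 25% or above 175%, edge rows of some plates excepted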;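 note: Galphao activated by GDP with aluminum fluoride before binding; 100% = wells without compound and 0% = beads without RGS; some results beyond the cut were filed as inactive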
Target sequence (O15492 whole entry, looked up): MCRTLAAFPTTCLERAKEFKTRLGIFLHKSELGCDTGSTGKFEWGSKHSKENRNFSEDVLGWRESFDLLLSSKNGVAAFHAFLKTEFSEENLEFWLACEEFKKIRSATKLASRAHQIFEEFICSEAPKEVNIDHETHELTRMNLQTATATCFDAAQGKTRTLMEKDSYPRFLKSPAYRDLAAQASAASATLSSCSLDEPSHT
Target sequence (P09471 whole entry, looked up): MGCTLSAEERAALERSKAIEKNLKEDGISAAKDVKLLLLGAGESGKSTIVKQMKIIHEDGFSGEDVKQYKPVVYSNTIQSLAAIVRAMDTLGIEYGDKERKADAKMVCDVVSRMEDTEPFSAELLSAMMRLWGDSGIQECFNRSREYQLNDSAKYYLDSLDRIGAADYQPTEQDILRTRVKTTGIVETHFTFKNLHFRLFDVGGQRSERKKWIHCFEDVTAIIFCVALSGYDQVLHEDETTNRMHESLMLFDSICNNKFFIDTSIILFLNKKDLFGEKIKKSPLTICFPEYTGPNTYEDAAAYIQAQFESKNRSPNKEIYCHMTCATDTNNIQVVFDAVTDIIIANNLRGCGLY
GALR2 ag = GALR2 receptor agonists, primary screen, cell-based. Galanin receptor type 2 (Homo sapiens), O43603. GALR2-expressing cells, agonist activation read-out. activation, %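 (tested at 5 µM)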. 0.48% of 140,000 active. AID 803, 2007;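 active = above mean plus 3 SD of all compounds, about 5% in these data, not always enough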;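 note: 0% = vehicle buffer wells and 100% = reference agonist at full effect; tested in CHO reporter cells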
Target sequence (O43603 whole entry, looked up): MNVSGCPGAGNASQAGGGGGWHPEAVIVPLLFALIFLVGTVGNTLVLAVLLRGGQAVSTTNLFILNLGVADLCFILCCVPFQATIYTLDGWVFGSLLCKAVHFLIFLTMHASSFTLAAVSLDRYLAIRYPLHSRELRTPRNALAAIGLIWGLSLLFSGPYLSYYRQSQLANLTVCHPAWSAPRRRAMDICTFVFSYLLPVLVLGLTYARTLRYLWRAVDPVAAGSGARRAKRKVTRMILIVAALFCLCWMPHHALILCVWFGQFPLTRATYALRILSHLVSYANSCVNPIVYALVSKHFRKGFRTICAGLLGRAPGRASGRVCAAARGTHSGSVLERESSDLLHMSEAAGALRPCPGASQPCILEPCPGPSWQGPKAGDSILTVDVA
INS promoter inh cell count = further read-out of INS promoter inh, marked with its call; normalized cell count, %; measured here: cell count, toxicity; reference of the scale not given here;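 cells exposed to compound for 48 h; stained nuclei by imaging scaled within each plate; lower means fewer cells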
HSV augment primary fold = second read-out of HSV augment, no call of its own (marks repeat the call); fold increase; compound at 10 µM; measured here: primary screen fold increase 10 uM; tested in PC3 cells;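 GFP signal in the first replicate; 1 = infected wells without compound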
Numbers without * were called inactive; i = inactive; ? = inconclusive; nt = no result given. Hits appear at their usual frequency. About 1.3% of those tested had a hit in this group.

Structure,INS promoter inh,INS promoter inh cell count,PKD1 inh,HSV augment,HSV augment primary fold,RGS16-Gao HTS,GALR2 ag
COc1cccc(CN(C)CC(=O)Nc2c(C)cccc2C(C)C)c1,nt,nt,3,i,1.2,101,nt
COc1ccc(C(=O)Nc2nc(-c3ccc([N+](=O)[O-])cc3)c(-c3ccccc3)s2)cc1,40,76,4,i,0.92,nt,-1.8
COc1cccc(/C=N/NC(=O)CNC(=O)c2cccs2)c1O,nt,nt,nt,i,0.89,90,nt
COc1ccc(-c2nn(-c3ccccc3)cc2C(=O)Nc2nc(CC(C)=O)ns2)cc1,nt,nt,-1,?,nt,96,-3.3
Cc1ccc(-n2ncc(C#N)c2N)cc1,nt,nt,nt,i,0.99,98,nt
O=C(Nc1nccs1)c1cccc(N2C(=O)C3C4C=CC(C4)C3C2=O)c1 (stereo not drawn),-59,121,-3,i,0.92,97,-0.2
COc1ccc(N(CC(=O)NCc2cccc(OC)c2)S(=O)(=O)c2c(C)noc2C)cc1,nt,nt,29,i,0.8,102,-0.9
Cc1cc(C)c(C(=O)COC(=O)[C@H](C)Nc2ccc(C(F)(F)F)cc2[N+](=O)[O-])c(C)c1,27,137,1,i,0.82,99,-0.6
CCCCc1[nH]c(=O)c(C#N)c2c1CSC(C)(C)C2,nt,nt,-10,i,0.92,101,-0.5
O=C(N/N=C/c1ccc(O)c([N+](=O)[O-])c1)c1ccncc1,nt,nt,nt,i,1,129,nt
Cc1noc(C)c1C(=O)NNc1ccc(C(C)C)cc1,nt,nt,nt,i,1.2,109,nt
COc1ccc(CNC(=O)CN(C2CCCCC2)S(C)(=O)=O)cc1,-31,113,-7,i,1,103,0.5
Cc1ccc(N2C(=O)c3ccccc3C2Nc2ccccc2)nc1 (stereo not drawn),nt,nt,-4,i,1.3,101,-2.5
O=C(O)CCCC(=O)Nc1ccccc1Br,nt,nt,-1,i,1.1,99,-1.3
Cc1cccc(-n2c(CCc3ccccc3)nnc2SCC(=O)c2ccccc2)c1,-213,74,-5,i,0.83,99,0.3
Cc1c(C(=O)NCc2ccco2)cccc1[N+](=O)[O-],-7,91,-7,i,1,103,-1.1
CCn1c(SCC(=O)Nc2cc(OC)ccc2OC)nnc1C1CCCCC1,-33,47,-1,i,0.75,102,-0.9
Cc1cccc(CN2CCN(c3nc4nonc4nc3NC3CC3)CC2=O)c1,nt,nt,1,i,0.99,91,nt
CCOC(=O)Nc1cccc(Cl)c1C,nt,nt,-6,i,0.97,103,-1.7
COCC(=O)N(C)C1(c2nnnn2CCOC(=O)Nc2ccc(Cl)cc2)CCCC1,-96,90,-9,i,0.85,113,-2.5
COc1ccc(C2(CNC(=O)c3ccc(OC)c([N+](=O)[O-])c3)CCOCC2)cc1OC,-8,84,7,i,0.81,98,-0.5
CC1CC(C)CN(c2nc3c(c(=O)n(C)c(=O)n3C)n2CCSc2ncccn2)C1 (stereo not drawn),nt,nt,-5,i,0.85,99,-2.5
O=C(/C=C/Nc1ccccc1)c1ccccc1,-9,97,4,nt,nt,44,0.6
CCOc1cc(NC(=O)C2CCCO2)c(OCC)cc1NC(=O)C1CC1 (stereo not drawn),nt,nt,-7,i,0.86,98,0.0
CCN(CC)c1ccc(C=Nc2cc(C)cc(C)c2)c(O)c1,13,80,-6,i,1,116,-2.3
Cn1c(=O)[nH]c(=O)c2c1nc(N1CCCC1)n2CCSc1nc2ccccc2[nH]1,-15,147,-4,i,1.1,100,-2.8
c1ccc2c(Nc3nc(N4CCOCC4)c4ccccc4n3)cccc2c1,29,90,-6,i,0.94,97,-1.7
Cc1ccc(S(=O)(=O)Nc2ccc(C(OC(=O)c3ccccc3[N+](=O)[O-])(C(F)(F)F)C(F)(F)F)cc2)cc1,9,128,12,i,0.94,103,-0.5
CCOC(=O)Nc1sc2c(c1C(=O)OCC)CCC2,-64,137,-5,i,0.86,99,-1.3
O=C(CSc1nnc(-c2ccc(F)cc2)o1)c1ccc2c(c1)OCCO2,-24,95,2,i,0.72,103,-1.6
CCc1ccccc1NC(=O)CC(O)(C(=O)OC)C(F)(F)F (stereo not drawn),-38,90,-1,i,1,99,-0.8
CCCN(CCC)CCNC(=O)C(NS(=O)(=O)c1ccc2c(c1)CCC(=O)N2)c1ccccc1 (stereo not drawn),29,135,-7,i,1.1,106,0.4
N#Cc1nc(Cc2ccccc2)oc1NCCN1CCOCC1,-21,96,1,i,1.1,109,-1.1
CCOC(=O)c1ccc(NC(=O)CSc2nnc(Cn3c(=O)sc4ccccc43)n2C)cc1,-71,174,-8,nt,nt,101,0.8
O=C1NC(Cc2c[nH]c3ccccc23)C(=O)N1Cc1cccc2ccccc12 (stereo not drawn),nt,nt,-5,i,0.9,99,0.2
O=C(O)CCn1c(SCc2cc(=O)n3ccccc3n2)nc2ccsc2c1=O,7,101,-2,i,1.1,102,nt

Sorted by count of non-hydrogen atoms (ascending): 3 of the compounds above.
Structure,INS promoter inh,INS promoter inh cell count,PKD1 inh,HSV augment,HSV augment primary fold,RGS16-Gao HTS,GALR2 ag
O=C(/C=C/Nc1ccccc1)c1ccccc1,-9,97,4,nt,nt,44,0.6
CCOc1cc(NC(=O)C2CCCO2)c(OCC)cc1NC(=O)C1CC1 (stereo not drawn),nt,nt,-7,i,0.86,98,0.0
COc1ccc(C2(CNC(=O)c3ccc(OC)c([N+](=O)[O-])c3)CCOCC2)cc1OC,-8,84,7,i,0.81,98,-0.5

The list continues:
Structure,INS promoter inh,INS promoter inh cell count,PKD1 inh,HSV augment,HSV augment primary fold,RGS16-Gao HTS,GALR2 ag
COc1ccccc1-c1c(C)nn2c(N3CCN(Cc4ccccc4)CC3)cc(C)nc12,nt,nt,-7,i,0.88,106,-1.7
COc1ccc(C(=O)Nc2c(C(C)(C)C)nn(C)c2C(C)(C)C)cc1,nt,nt,nt,i,0.96,120,nt
O=C(Nc1ccc(N2CCOCC2)cc1)c1cc2c(s1)CCCC2,nt,nt,3,i,0.95,106,nt
COc1ccccc1NS(=O)(=O)c1cccc(C(=O)N/N=C/c2ccc(NC(C)=O)cc2)c1,nt,nt,-6,i,0.93,103,nt
COc1cc(/C=C2\SC(=O)N(Cc3ccc(Cl)cc3)C2=O)cc([N+](=O)[O-])c1O,nt,nt,-2,i,0.97,102,nt
NS(=O)(=O)c1ccc(CCNC(=O)CSc2ccc(Cl)cc2)cc1,nt,nt,-5,i,1.1,99,0.0
CCOc1cc(C2NC(=O)NC(C)=C2C(C)=O)cc(Cl)c1OCC(=O)O (stereo not drawn),17,108,2,i,1.2,101,-0.3
Cc1c(O)ccc(NC(=O)/C=C/c2ccccc2)c1C,42,118,10,i,0.98,93,nt
CNC(=S)N1N=C(c2ccc(OC)cc2)CC1c1ccccc1Cl (stereo not drawn),nt,nt,nt,i,0.96,100,nt
CCCCOC(=O)Nc1ccc(S(=O)(=O)Nc2cc(C)nc(C)n2)cc1,-20,60,-9,i,0.87,167,-2.0
N=c1c(-c2nc3ccccc3[nH]2)cc(C(=O)c2cccs2)nn1-c1ccc(Cl)cc1,34,116,-4,i,0.99,nt,-1.6
Cc1onc(-c2c(Cl)cccc2Cl)c1C(=O)O/N=C(\C#N)c1c(Cl)cccc1Cl,nt,nt,nt,i,1.1,104,nt
COc1cccc(CCNc2ccc(N3C(=O)CC(C)C3=O)cc2[N+](=O)[O-])c1 (stereo not drawn),14,95,2,i,0.86,105,nt
O=C(/C=C/c1ccccc1Cl)NCc1ccco1,nt,nt,-6,i,0.94,108,-0.3
CC(/C=C/c1ccccc1)=N\NC(=O)c1ccc(Br)cc1,-389,64,4,i,0.91,101,nt
CC12CCC(c3c(CO)nn(-c4ccccc4)c31)C2(C)C (stereo not drawn),-25,100,-3,i,1.1,78,-4.9
CC12CCC(C(=O)Nc3cccc(Cl)c3)(C(Br)C1=O)C2(C)C (stereo not drawn),-21,84,13,i,0.96,115,-1.3
O=c1cc(-c2ccccc2)[nH]c2[nH]n(-c3ccccc3)c(=O)c12,10,107,-16,i,0.65,109,-3.0
Cc1ccc(S(=O)(=O)/N=C(\N)c2ccc(F)cc2)cc1,nt,nt,-1,i,0.99,102,nt
COc1ccc(CCNCC(O)Cn2ccc3ccccc32)cc1OC (stereo not drawn),nt,nt,nt,i,1,100,nt
CCOc1ccccc1/C=N/NC(=O)c1cccc(Cl)c1,nt,nt,-9,i,1,89,-0.8
CCNc1sc(C(=O)OCC)c(N)c1C#N,55,132,1,i,0.9,103,nt
CC1CCN(S(=O)(=O)c2cccc(S(=O)(=O)N3CCOCC3)c2)CC1,-83,63,1,i,0.97,107,0.1
COCCNC(=O)C(=O)NCC1OCCN1S(=O)(=O)c1ccc2c(c1)OCCO2 (stereo not drawn),nt,nt,nt,i,0.65,97,nt
CC(=O)NC(CCS(C)(=O)=O)C(=O)Nc1cc(Cl)ccc1Cl (stereo not drawn),nt,nt,-8,i,1,106,-1.0
CN(C)c1nc2c(c(=O)n(C)c(=O)n2C)n1Cc1ccccc1,-9,103,3,i,0.5,101,-0.6
CCOc1ccc(Nc2nc(Cl)nc(N3CCN(c4ccc(OC)cc4)CC3)n2)cc1,nt,nt,9,i,0.82,106,0.2
Nc1ccc(Br)cc1C(=O)O,17,132,-8,i,1,45,-1.7
O=C(NCc1ccco1)C(c1ccccc1)N(Cc1ccccc1)C(=O)Cn1nnc2ccccc21 (stereo not drawn),-7,75,-5,i,0.91,86,-1.1
Cn1nccc1NC(=O)CSCC(=O)O,nt,nt,nt,i,1,107,nt
CCOc1ccc(C2C(C#N)=C(N)Oc3cc(C)n(CCN4CCOCC4)c(=O)c32)cc1OCC (stereo not drawn),nt,nt,0,i,1.1,105,-2.3
Cc1ccc2[nH]c(=O)cc(C(=O)OCC(=O)c3ccc(F)cc3)c2c1,19,104,-3,i,1,100,nt
CC(=O)OC[C@H]1O[C@@H](O/N=C(\C)CCN2CCCCc3nc(C)c(C)cc32)[C@H](OC(C)=O)[C@@H](OC(C)=O)[C@@H]1OC(C)=O,0,128,-7,nt,nt,113,-1.0
CCCCCC(=O)NC(=S)Nc1ccccc1C(=O)OC,33,136,-11,i,0.92,102,0.1
Cc1cc(=O)n2nc(N3CCCC(C(=O)N4CCN(c5ccccc5)CC4)C3)sc2n1 (stereo not drawn),-42,147,-1,i,0.99,99,-1.0
c1cnc2ccc(C(c3nnnn3C3CCCCC3)N3CCCCC3)cc2c1 (stereo not drawn),-125,74,0,i,0.89,114,-3.0
O=C(Oc1cccc(C(=S)N2CCCCC2)c1)c1ccccc1,0,108,1,i,1.2,92,nt
CCc1nc(SCC(=O)Nc2cc(C)on2)n[nH]1,nt,nt,-3,i,0.96,82,-1.4
O=C(c1ccco1)N(Cc1cc2ccccc2[nH]c1=O)CC1CCCO1 (stereo not drawn),0,71,-3,i,0.96,101,-0.3
Cc1ccc(-n2cc(CN3CCN(Cc4nccn4C)CC3)c(-c3ccc(F)cc3)n2)cc1,-45,98,7,i,0.72,106,nt
Cn1c(=O)cc(SCC(=O)NCCCN2CCN(c3ccc(F)cc3)CC2)c2ccccc21,nt,nt,-8,i,1,91,-2.7
COCCCNc1nc2ccccc2nc1NS(=O)(=O)c1cccs1,nt,nt,-11,i,0.93,105,-1.4
O=C(COc1ccc(C(=O)c2ccccc2)cc1)NCc1ccc(F)cc1,nt,nt,0,i,0.73,108,0.1
CC(NC(=O)c1ccccc1Br)c1nnc(SCc2ccc([N+](=O)[O-])cc2)n1C (stereo not drawn),nt,nt,-6,i,1.1,102,-1.8
N#Cc1c2n(c3c(=O)n(Cc4ccc(Cl)cc4)cnc13)CCCC2,55,93,-4,i,0.79,95,0.1
Cc1cc(NC(=O)CCn2c(=O)sc3ccccc32)no1,6,126,-2,i,0.74,nt,-2.5
C=CCOC(=O)C1=C(C)NC(SCC(=O)Nc2ccc(C)c(Cl)c2)=C(C#N)C1c1ccco1 (stereo not drawn),nt,nt,2,?,nt,65,-0.8
